Screening data as filed in PubChem.
Resorufin autofl = qHTS Assay for Spectroscopic Profiling in Resorufin Spectral Region; Compound fluorescence, resorufin region 547/598 nm, buffer; hits give high values; max dye-equivalent concentration, M; actives 0.04% (n = 59,000); AID 588, 2007; active = above 10 nM dye equivalent; inconclusive = 1 to 10 nM; inactive = 1 nM or less; a few of its hits are not listed in these tables; also: highest value over a series up to 38 µM
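Read-out: intrinsic compound fluorescence at ex 547/em 598 nm after 15 min at RT in pH 8.0 Tris (100 mM). Values expressed as resorufin-equivalent concentration from per-plate standard series.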
A647 autofl = qHTS Assay for Spectroscopic Profiling in A647 Spectral Region. Compound fluorescence, A647 channel (570/671 nm), Tris buffer. max dye-equivalent concentration, M. 59,000 tested, under 10 active; active means above 1 µM dye equivalent; inconclusive means 0.1 to 1 µM; inactive means 0.1 µM or less;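 also: values scaled relative to a standard on each plate; highest value over a series up to 38 µM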
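Fluorescence read (570 nm ex, 671 nm em) after 15 min RT incubation of compounds in 100 mM Tris buffer, pH 8.0; values expressed as dye-equivalent concentration against a six-point A647 standard series on each plate.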
AID923 = qHTS Assay for Allosteric/Competitive Inhibitors of Caspase-1: Spectroscopic Profiling in AFC Spectral Region; compound fluorescence, AFC spectral region (405/520 nm); almost no hit is shown here; Potency, µM (top dose mostly 57.5 µM), for the others: at the top dose fluorescence increase, actives largely listed as activators; actives 1.1% (n = 75,000); AID 923, 2007; active = well fitted activation curve with a large enough effect; inconclusive = small, poorly fitted or top-dose-only effect;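 also: potency is read from the fitted curve at half-maximal effect; 0% is about no effect; scaled to a free AFC standard on each plate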
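Titrations up to 57 uM read every 20 sec for 3 min (405/520 nm) with 50 nM caspase 1 and 5 uM Ac-WEHD-AFC, pH 7.5 HEPES buffer. Fluorescence-vs-time intercept gave baseline, scaled against on-plate AFC standard.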
TSHR ag = qHTS Assay for Agonists of the Thyroid Stimulating Hormone Receptor; HEK293-CNG-TSHR cells (CNG channel as cAMP sensor), membrane potential dye, cAMP; Potency, µM (doses to about 57.1 µM), inactives show at the highest dose activation, most hits filed as activators; actives 0.48% (n = 73,000); AID 926, 2007; active = well fitted activation curve of enough size with the parental cells flat; inconclusive = any curve in the parental cells; inactive = parental cells flat and receptor cells flat or falling; also: potency is read from the fitted curve at half-maximal effect; % of control where 0% means no effect; weak receptor curves with flat parental cells got no call and are not listed
Target sequence (P16473 whole entry, looked up): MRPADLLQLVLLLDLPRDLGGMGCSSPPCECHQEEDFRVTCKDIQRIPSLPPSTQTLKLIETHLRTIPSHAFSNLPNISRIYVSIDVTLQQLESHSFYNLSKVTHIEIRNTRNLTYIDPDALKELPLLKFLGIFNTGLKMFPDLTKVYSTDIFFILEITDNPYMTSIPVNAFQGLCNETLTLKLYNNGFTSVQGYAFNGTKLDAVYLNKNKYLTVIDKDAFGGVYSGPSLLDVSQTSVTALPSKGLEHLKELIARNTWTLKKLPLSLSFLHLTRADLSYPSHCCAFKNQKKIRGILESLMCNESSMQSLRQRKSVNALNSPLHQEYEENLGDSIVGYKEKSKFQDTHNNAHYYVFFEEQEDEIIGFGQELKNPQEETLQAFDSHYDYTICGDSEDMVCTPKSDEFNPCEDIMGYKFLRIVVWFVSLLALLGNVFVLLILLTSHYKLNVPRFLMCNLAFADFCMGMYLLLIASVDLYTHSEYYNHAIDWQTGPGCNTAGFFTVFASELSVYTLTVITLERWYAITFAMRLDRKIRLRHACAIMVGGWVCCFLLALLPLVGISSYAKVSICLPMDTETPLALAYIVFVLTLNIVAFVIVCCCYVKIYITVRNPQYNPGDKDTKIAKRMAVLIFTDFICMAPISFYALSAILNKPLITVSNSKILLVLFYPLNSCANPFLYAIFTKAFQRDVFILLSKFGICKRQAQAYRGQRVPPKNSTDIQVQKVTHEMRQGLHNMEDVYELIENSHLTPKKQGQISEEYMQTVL
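HEK 293 cells stably expressing TSHR and a modified CNG channel, with CNG-only parental cells as counterscreen, were preloaded 60 min at room temperature with membrane potential dye containing 100 uM RO 20-1724. Compound exposure was 30 min, and depolarization was read as fluorescence at 590 nm.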
A488 fluor = qHTS Assay for Spectroscopic Profiling in A488 Spectral Region; compound autofluorescence, A488 spectral region, dye equivalency; hits give high values; max dye equivalency, M; actives 0.1% (n = 59,000); AID 591, 2007; active = above 10 nM dye equivalent; inconclusive = 1 to 10 nM; inactive = 1 nM or less; about half of its hits are not listed in these tables;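 also: highest value over a series up to 38 µM; compound alone in buffer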
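Readout is A488 dye-equivalent concentration, calibrated by a per-plate six-point Alexa 488 series. Compounds in 100 mM Tris buffer pH 8.0 were incubated 15 min at room temperature. Plates were imaged using 480 nm excitation/540 nm emission filters.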
An asterisk follows results filed as active; i = inactive; ? = inconclusive; · = not tested or not shown; [ ] = dose if it differs, or a comment. This is a subset; the hit share may differ from the screen's.

SMILES | Resorufin autofl | A647 autofl | AID923 | TSHR ag | A488 fluor
COc1ccc(NC(=O)C2CC(=O)NC(Nc3cccc(C)c3)=N2)cc1 (centres undefined) | i | 1e-09 | -0.8% | -1% | i
COc1ccc(S(=O)(=O)N(C)CC(=O)N2CCOCC2)cc1 | i | 8e-09 | 0.2% | -3% | i
CCOc1cc(C)c(Cl)cc1S(=O)(=O)n1cnc2ccccc21 | i | 1.1e-08 | 1.1% | 26% | i
CC1=C(C(=O)OCc2ccccc2)C(c2ccccc2-c2ccccc2)NC(=O)N1CCCCCC(=O)O (centres undefined) | · | · | -2.7% | 4% | ·
Nc1c(C(=O)CCC(=O)O)oc2ccc(Cl)cc12 | · | · | 2.0% | -3% | ·
COC(=O)c1cccc(NC(=O)Cn2cnc3c2c(=O)n(C)c(=O)n3C)c1 | i | 1e-09 | 1.0% | 3% | i
COc1ccc(C(N)=O)cc1N | · | · | 0.3% | -8% | ·
COc1ccc2c(c1)C=CC1(O2)N(CCO)c2ccccc2C1(C)C (centres undefined) | i | 4.9e-09 | 3.8% | 16µM* | i
COc1ccccc1-c1cc(C(=O)Nc2c(F)cc(F)cc2Br)no1 | i | 2.5e-09 | -0.9% | ? | i
Cn1c(=O)c2c(nc(SCc3cc4c(cc3Cl)OCO4)n2C)n(C)c1=O | · | · | -0.8% | 7% | ·
O=C(/C=C/Nc1ccc(F)c(Cl)c1)c1ccco1 | i | 4.5e-08 | 5.5% | 31% | i
Nc1ccc(-c2nc3ccc(-c4nc5ccccc5o4)cc3[nH]2)cc1 | i | 1e-09 | 18% | -15% | i
Cn1c(=O)c2[nH]c(N3CCOCC3)nc2n(-c2ccccc2)c1=O | i | 1e-09 | 2.0% | · | i
COc1ccccc1OCc1nnc(SCC(=O)c2cc(Cl)ccc2OC)o1 | i | 6.5e-09 | 2.5% | ? | i
CCC(=O)Nc1ccc(Nc2ccccc2)cc1 | i | 4.1e-08 | -0.1% | -25% | i
CCCS(=O)(=O)c1cn2cccc(N)c2c1S(=O)(=O)CCC | i | 2.3e-08 | 20% | -2% | i
Cc1nccn1CCc1nc(N)nc(N)n1 | i | 1.7e-09 | -1.9% | · | i
Cc1nn2c(=O)c(NC(=O)c3ccc(F)cc3)cnc2s1 | i | 8.3e-08 | -1.7% | 1% | i
COC(=O)N1CCN(c2ccc(OC)cc2)CC1 | i | 8.7e-08 | -0.4% | -1% | i
O=C(NCC1CCCO1)C1CC(=O)N(c2ccc(F)c(Cl)c2)C1 (centres undefined) | · | · | 1.1% | 6% | ·
O=C1NC2(CCCCC2)N=C1c1ccc(F)cc1 | i | 2e-09 | 0.7% | -1% | i
NC(=O)COC(=O)c1cc(S(=O)(=O)N2CCOCC2)ccc1N1CCCCC1 | i | 2.9e-08 | 0.4% | -1% | i
CCOC(=O)/C(C(N)=NCc1ccco1)=C(/O)c1ccccc1 | i | 1e-09 | 0.3% | -2% | i
O=C(O)/C=C/c1ccc(O)c(O)c1 | i | 1.2e-08 | -2.0% | · | i
CCN1CCN(Cc2c(C)[nH]c3ccc(OC)cc3c2=O)CC1 | i | 3.7e-08 | 2.4% | 0% | i
COc1ccc(S(=O)(=O)NC2CCCC2)cc1Br | i | 3.5e-08 | 0.2% | 3% | i
CCN(c1ccccc1)S(=O)(=O)c1cccc(C(=O)O)c1 | i | 6.4e-09 | 0.4% | 5% | i
COc1ccccc1N1CCN(CCCCOc2ccc(F)cc2)CC1 | i | 1e-09 | · | · | i
CC(=O)NC(Cc1ccc(F)cc1)C(=O)N1CCN(C(=O)NCc2ccccc2)CC1 (centres undefined) | i | 1.3e-08 | -1.4% | 2% | i
ON=Cc1cccn1-c1ccccc1 | · | · | 1.5% | 11% | ·
CC(C)OCCCNc1ncc2c(n1)CC(c1ccc(N(C)C)cc1)CC2=O (centres undefined) | i | 3.9e-08 | -0.8% | · | i
COc1ccc(C(=O)c2sc(NC(C)C)nc2N)cc1OC | i | 1.6e-09 | · | · | i
OC1(c2ccc(F)cc2)CCN(Cc2ccccc2)C1 (centres undefined) | i | 1e-09 | 1.4% | 14% | i
CCOc1cc(C(=O)NCC2CCCO2)cc(OCC)c1OCC (centres undefined) | i | 1e-09 | 1.6% | -4% | i
CN(c1ccc(C(=O)NC2CC2)cc1)S(=O)(=O)c1ccccc1 | i | 1e-09 | 0.4% | 1% | i
COc1cccc(Cn2c(=O)cnc3cnc(OC)nc32)c1 | i | 3.2e-09 | 1.4% | ? | i
CC(C)NC(=O)N1CCC2(CC1)CCN(C(=O)c1cccc(F)c1)CC2 | i | 1e-09 | 2.7% | 2% | i
CCN(CCNC(=O)CCCn1nc(C)n2c(cc3sccc32)c1=O)c1ccccc1 | · | · | 2.0% | 17% | ·
CC1(C)CC(=O)C(C=NC2CC(C)(C)NC(C)(C)C2)=C(O)C1 | · | · | 0.5% | -4% | ·
O=C(Cc1ccccc1)Nc1ccc2oc(-c3ccncc3)nc2c1 | i | 4.1e-08 | 3.1% | -1% | i
CCOC(=O)CNC(=O)CSc1nc(N(C)C)nc(N2CCOCC2)n1 | i | 2.4e-08 | -0.3% | 2% | i
CC(=O)c1cccc(NC(=O)NC(C)c2ccncc2)c1 (centres undefined) | i | 2.2e-08 | 3.5% | ? | i
O=C(Cn1nnc2ccccc2c1=O)Nc1cc(C(F)(F)F)ccc1N1CCOCC1 | i | 2.1e-09 | 0.7% | -4% | i
c1ccc(-n2ncc3c2ncn2nc(-c4ccco4)nc32)cc1 | i | 1e-09 | 1.2% | 0% | i
Cc1ccc(C(C(=O)NC2CCCCC2)N2CCCC2)cc1 (centres undefined) | i | 1e-09 | 0.3% | · | i
Cc1cc(N2CC(C(=O)O)CC2=O)ccc1Br (centres undefined) | i | 1e-09 | 2.1% | -1% | i
Cc1ccc(NC(=O)CCCCCC2NC(=O)NC2C)cc1 (centres undefined) | i | 1e-09 | -1.4% | 2% | i
COc1cc(C(=O)O)ccc1OC(C)=O | i | 2.2e-09 | 2.0% | ? | i
CC1(C)C(c2ccc(Cl)cc2)=[N+]([O-])C2(CCCC/C2=N\O)N1O (centres undefined) | · | · | 1.2% | 4%[11.4 µM] | ·
CC(=O)Cn1c(CN2CC(C)CC(C)C2)nc2c1c(=O)n(C)c(=O)n2C (centres undefined) | i | 2e-08 | 4.0% | 21% | i
Cc1cc(C(F)F)n2nc(C(=O)NCc3ccccc3F)nc2n1 | i | 2.6e-09 | -0.1% | -14% | i
CCCCNCCOCCOc1ccc(F)cc1 | · | · | 1.2% | ? | ·
COC(=O)C1C(=O)C2=C(CC1C)NC(C)=C(C(=O)OC1CCCC1)C2c1ccc(N(C)C)cc1 (centres undefined) | i | 2.5e-08 | 12% | 10% | i
Cc1cccc(OCC(=O)N2CCN(C(=O)CCC3CCCC3)CC2)c1 | · | · | 0.3% | 14% | ·
Cc1ccc(-c2nn(C)c(=O)c3ccccc23)cc1S(=O)(=O)NCCO | i | 1.5e-08 | -2.8% | 4% | i
Cc1noc(C)c1S(=O)(=O)Nc1ccc(C(=O)NCc2ccccc2)cc1 | i | 1e-09 | -0.4% | 2% | i
CN1CCN(c2ncc3nc(CCc4ccccc4)c(=O)n(CCc4ccccc4)c3n2)CC1 | i | 3.7e-09 | 13% | 18% | i
Cn1cccc1Cc1nnc(SCC(=O)Nc2ccccc2)n1-c1ccc(F)cc1 | · | · | -2.1% | -1% | ·
Cc1cc(NC(=O)CCC(=O)N(Cc2ccco2)C2(C(=O)NC3CCCCC3)CCN(C)CC2)no1 | i | 6.4e-08 | 2.3% | -1% | i
O=C(COC(=O)c1ccc2c(c1)OCO2)NCc1ccc(Cl)cc1 | i | 1e-09 | 0.0% | ? | i
(listing goes on)
SMILES | Resorufin autofl | A647 autofl | AID923 | TSHR ag | A488 fluor
COC(=O)[C@H](Cc1ccccc1)NC(=O)[C@@]1(C)C[C@@H]1[C@@H](NC(=O)OCc1ccccc1)c1ccccc1 | · | · | 2.1% | ? | ·
CCS(=O)(=O)c1ccc2oc(Nc3ccccc3C)nc2c1 | i | 2.6e-08 | 0.0% | 1% | i
O=C(CNS(=O)(=O)c1cccs1)N1CCN(c2ccccn2)CC1 | i | 1e-09 | 0.1% | -4% | i
COC(=O)C1=[N+]([O-])OC(C(=O)OC)C1c1c[nH]c2ccccc12 (centres undefined) | i | 3e-08 | 0.4% | 2% | i
Cc1c(Cl)cccc1N(CC(=O)NC1CCCCC1)S(C)(=O)=O | · | · | -0.6% | ? | ·
CCn1c2ccccc2c2nnc(SCC(=O)N3CC(C)OC(C)C3)nc21 (centres undefined) | i | 2.2e-08 | -0.9% | -2% | i
CC(=O)n1nc(-c2ccco2)nc1N | i | 1.8e-08 | 3.5% | 17% | i
O=C(c1ccccc1)N1CCN(c2ccc(Cl)cc2)CC1 | · | · | -3.3% | -15% | ·
CCOC(=O)C1=C(N)OC2=C(C(=O)CC(C)(C)C2)C1c1cccnc1 (centres undefined) | i | 1e-09 | 0.7% | ? | i
COc1ncc2nc(-c3ccc(F)cc3)c(=O)n(C[C@H]3CCCO3)c2n1 | i | 1e-09 | 7.6% | ? | i
CC(=O)c1c(C)[nH]c(C(=O)OCC(=O)Nc2cc(C)on2)c1C | i | 4.1e-08 | -0.3% | 6% | i
Cc1ccc(NS(=O)(=O)c2ccc(C(=O)N3CCCN(C)CC3)cc2)cc1 | i | 1e-09 | 0.4% | -1% | i
CC(=O)NCCNc1ncnc2ccc(-c3cccc(NS(C)(=O)=O)c3)cc12 | i | 4.4e-08 | 3.3% | ? | i
COc1ccc(Oc2nc3c(c(=O)n(C)c(=O)n3C)n2Cc2cccc(OC)c2)cc1 | i | 1e-09 | · | · | i
O=C(O)CSc1nnc2c3ccccc3c3ccccc3c2n1 | i | 1e-09 | -2.9%[11.5 µM] | 6%[11.4 µM] | i
COc1ccc(NC(=O)CN2CCC(NC(=O)C3CCCCC3)CC2)cc1 | i | 1.8e-08 | 1.8% | 2% | i

Twelve entries out of the list, ordered by molar mass, low to high.
SMILES | Resorufin autofl | A647 autofl | AID923 | TSHR ag | A488 fluor
CC(=O)n1nc(-c2ccco2)nc1N | i | 1.8e-08 | 3.5% | 17% | i
O=C(c1ccccc1)N1CCN(c2ccc(Cl)cc2)CC1 | · | · | -3.3% | -15% | ·
CCS(=O)(=O)c1ccc2oc(Nc3ccccc3C)nc2c1 | i | 2.6e-08 | 0.0% | 1% | i
COC(=O)C1=[N+]([O-])OC(C(=O)OC)C1c1c[nH]c2ccccc12 (centres undefined) | i | 3e-08 | 0.4% | 2% | i
CC(=O)c1c(C)[nH]c(C(=O)OCC(=O)Nc2cc(C)on2)c1C | i | 4.1e-08 | -0.3% | 6% | i
O=C(O)CSc1nnc2c3ccccc3c3ccccc3c2n1 | i | 1e-09 | -2.9%[11.5 µM] | 6%[11.4 µM] | i
CCOC(=O)C1=C(N)OC2=C(C(=O)CC(C)(C)C2)C1c1cccnc1 (centres undefined) | i | 1e-09 | 0.7% | ? | i
Cc1c(Cl)cccc1N(CC(=O)NC1CCCCC1)S(C)(=O)=O | · | · | -0.6% | ? | ·
COc1ccc(NC(=O)CN2CCC(NC(=O)C3CCCCC3)CC2)cc1 | i | 1.8e-08 | 1.8% | 2% | i
CCn1c2ccccc2c2nnc(SCC(=O)N3CC(C)OC(C)C3)nc21 (centres undefined) | i | 2.2e-08 | -0.9% | -2% | i
Cc1ccc(NS(=O)(=O)c2ccc(C(=O)N3CCCN(C)CC3)cc2)cc1 | i | 1e-09 | 0.4% | -1% | i
CC(=O)NCCNc1ncnc2ccc(-c3cccc(NS(C)(=O)=O)c3)cc12 | i | 4.4e-08 | 3.3% | ? | i
